Screens: PubChem, Broad Institute
RanGTP-Impb inh: inhibitors of RanGTP-importin-beta interaction, primary screen, biochemical, FRET, CFP-Ran, YFP-importin-beta, homogeneous; cell-free CFP-Ran/YFP-importin-beta FRET ratio; 300,000 compounds, 1.1% hits; inhibition, % (test concentration not listed); AID 2216;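 active = most replicates above 15%; inconclusive = exactly half above 15%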;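 note: 0% = DMSO wells and 100% = Ran loaded with GDP instead of GTP; wells of about 40 µL received 100 nL stock; the first replicate is given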
T cruzi inh: blocks replication of Trypanosoma cruzi | T. cruzi beta-gal in NIH3T3, luminescence, 90 h | inhibition, % (test concentration not listed) | 300,000 compounds, 1.4% hits | AID 1885;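 active = mean inhibition across valid replicates above about 55%, limit read from the data; inconclusive = mean below that limit but half or more replicates reach it; inactive = mean below it, under half of replicates reach it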;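 note: signal also drops with host cell toxicity which is not excluded here; 0% = plate median of DMSO wells and 100% = zero luminescence signal; higher percent means less beta-gal luminescence so fewer parasites; stock transfer was 50 nL into about 50 µL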
Beta cell apopt: blocks beta cell apoptosis; INS-1E cytokine-induced death, ATP luminescence, 48 h; percent of positive-control rescue, neutral wells zero; AID 435005; protection from apoptosis, % (no concentration beside the values); 300,000 compounds, 0.8% hits;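 active = all replicates at 75% or more, or half of them and the mean; inconclusive = half reach 75% but not the mean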;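 note: 0% = cytokine-treated negative control wells and 100% = positive control rescue; higher means more ATP so stronger rescue from cytokine killing; wells of about 40 µL received 100 nL stock; the first replicate is given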
Calb FLC: C. albicans growth modulation with fluconazole; C. albicans CaCi-2 (fluconazole-resistant clinical isolate) + fluconazole, Alamar Blue growth, 48 h; growth inhibition, % (no concentration beside the values); 300,000 compounds, 0.57% hits; AID 1979;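 active = most replicates above 75%; inconclusive = exactly half above 75%; inactive = most below 75%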;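 note: all wells also contain fluconazole at 8 µg/ml as a sub-toxic cotreatment; 0% = median of DMSO wells and 100% = median of geldanamycin control wells; wells of about 8 µL received 7.5 nL stock; the first replicate is given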
FGF22 binding: FGF22 (human) thermal shift binding; recombinant FGF22 thermal shift, SYPRO orange fluorescence; percent of sucrose octasulfate shift, DMSO zero; calls only at 9.99 µM; 340,000 compounds, 1.5% hits;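 active = melting point raised past a set limit in the mean and every replicate; inconclusive = no clear call; three in four hits are not shown here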
Target sequence (Q9HCT0 whole entry, looked up): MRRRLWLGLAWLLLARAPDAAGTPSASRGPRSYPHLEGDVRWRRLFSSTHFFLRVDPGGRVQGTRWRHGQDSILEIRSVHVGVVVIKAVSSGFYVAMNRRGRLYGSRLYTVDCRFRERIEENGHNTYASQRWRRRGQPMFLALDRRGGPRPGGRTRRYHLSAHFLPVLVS
Ecoli rRNA inh: inhibitors of bacterial rRNA selective over humanized ribosomes; 350,000 compounds, 1.6% hits; GFP signal change (wild-type ribosome), % (no concentration beside the values); E. coli WT GFP vs humanized-ribosome RFP mutants, fluorescence, 24 h; hits give low values; DMSO median 0, no signal -100;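 active = significant combined selectivity score with lowered wild-type GFP, culture density cut under 30%, mutant RFP and density less affected; inactive = any of these conditions unmet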; note: one replicate is shown; some compounds called inactive have numbers as strong as hits
MLL AF4-AF9 inh: inhibitors of human MLL-AF4/AF9 interaction; P42568; AlphaScreen, biotin-AF4 peptide binding to FLAG-AF9; inhibition, % at 10 µM; 350,000 compounds, 0.47% hits;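 active = every replicate reaching a set inhibition limit, whatever the replicate mean, cut at about 25% in these data; inconclusive = mean inhibition reaches that limit but some replicates miss it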;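 note: 0% = plate neutral control median and 100% = total signal loss; the record names both 10 and 1 µM as test concentration; the first replicate is given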
Target sequence (P42568 whole entry, looked up): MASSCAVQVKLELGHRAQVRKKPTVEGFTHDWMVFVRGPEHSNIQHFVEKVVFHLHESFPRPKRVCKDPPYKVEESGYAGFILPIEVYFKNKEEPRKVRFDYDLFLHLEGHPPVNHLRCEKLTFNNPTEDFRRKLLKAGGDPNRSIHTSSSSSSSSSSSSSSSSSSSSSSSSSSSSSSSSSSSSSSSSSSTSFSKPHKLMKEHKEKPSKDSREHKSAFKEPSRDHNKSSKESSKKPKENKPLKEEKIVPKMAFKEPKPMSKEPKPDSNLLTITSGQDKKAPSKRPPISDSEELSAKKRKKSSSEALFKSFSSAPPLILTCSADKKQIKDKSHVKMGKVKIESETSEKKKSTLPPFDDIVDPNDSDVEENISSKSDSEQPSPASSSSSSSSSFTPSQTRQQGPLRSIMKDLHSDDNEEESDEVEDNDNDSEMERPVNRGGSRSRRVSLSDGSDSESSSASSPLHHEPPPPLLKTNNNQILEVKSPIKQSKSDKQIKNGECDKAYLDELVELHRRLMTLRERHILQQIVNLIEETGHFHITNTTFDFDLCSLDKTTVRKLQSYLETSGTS
ALR inh: inhibitors of human sulfhydryl oxidase ALR. P55789. purified ALR, DTT oxidation, H2O2 HRP-luminol luminescence. inhibition, % (no concentration beside the values). 290,000 compounds, 3.8% hits. AID 485317;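 active = mean and each replicate at 75% or more; inconclusive = only one of the two met; inactive = neither met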;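 note: stock transfer was 7.5 nL into about 7.5 µL; 0% = neutral wells and 100% = wells with inactivated enzyme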
Target sequence (P55789 whole entry, looked up): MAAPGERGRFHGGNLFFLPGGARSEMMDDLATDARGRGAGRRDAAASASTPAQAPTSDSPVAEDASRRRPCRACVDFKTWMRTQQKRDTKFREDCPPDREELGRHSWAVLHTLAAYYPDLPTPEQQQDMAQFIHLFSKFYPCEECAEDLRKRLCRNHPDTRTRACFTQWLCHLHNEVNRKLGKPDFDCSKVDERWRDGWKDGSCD
Ecoli rRNA inh OD600: also measured in Ecoli rRNA inh; calls as there; OD600 change, %; measured here: OD600 growth;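 optical density of the mix in the first replicate; 0 = DMSO median and -100 = no signal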
Ecoli rRNA inh RFP: recorded beside Ecoli rRNA inh, whose call it bears; RFP signal change, %; measured here: RFP humanized mutant strains;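 first replicate; 0 = DMSO median and -100 = no signal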
Numbers without * were called inactive; i = inactive; u = inconclusive; x = not tested or not shown; & = joins results of further samples. An excerpt; count on the stated rates, not on these rows.

molecule	MLL AF4-AF9 inh	FGF22 binding	T cruzi inh	Ecoli rRNA inh OD600	Ecoli rRNA inh RFP	Ecoli rRNA inh	RanGTP-Impb inh	Calb FLC	ALR inh	Beta cell apopt
O=C(/C=C/c1cccs1)NC(=S)NNC(=O)c1ccccc1O	-0.7	i	-14.6	-68.0	-5.5	-38.9	-0.8	117.8*	-6.1	31.0
COc1ccc(CN(C(=O)c2oc3cc(C)c(C)cc3c2C)C2CCS(=O)(=O)C2)cc1OC (stereo not drawn)	10.5	i	14.7	-10.4	-1.5	-6.2	-1.5	-6.1	-6.5	-2.4
CC(C)(CN1CCCC1)NS(=O)(=O)c1ccccc1	-2.5	i	-1.6	17.7	2.6	14.4	7.7	2.2	-42.6	-1.0
Brc1ccc(-c2nnc3ccc(N4CCN(c5ccccc5)CC4)nn23)cc1	x	x	9.6	x	x	x	-2.9	-2.5	0.7	-5.5
CC1CCCCN1C(=O)COC(=O)c1ccc(N2CCCC2=O)cc1 (stereo not drawn)	-0.2	i	x	3.7	0.9	2.7	x	x	-7.2	-6.9
COC(=O)C1=C(C(=O)OC)[C@@H]2N(C)c3ccccc3[C@@]23C[C@@H](C(=O)OC)N(C(=O)c2ccco2)C3=N1	11.9	i	-4.5	6.1	4.6	11.9	5.3	-16.5	x	-14.4
CCCCCCCCNc1nc(Cl)nc(NCCN2CCOCC2)n1	-0.9	i	-1.0	7.2	4.1	3.1	-0.5	-15.3	-1.2	-2.2
COc1cc(CN2CCN(Cc3cccc(OC)c3OC)CC2)cc(OC)c1	1.5	i	4.7	16.4	2.7	7.0	-1.2	-7.0	3.1	-1.1
Cc1nc2cc(NS(=O)(=O)c3ccccc3)ccc2n1C	-9.8	i	-13.2	4.6	-0.2	9.2	1.0	24.4	-5.6	0.8
CCCCCCCCNC(=O)/C(C#N)=C/c1ccc2c(c1)OCCO2	-3.3	x	12.1	-5.4	-0.9	-1.2	1.0	13.5	-4.4	-4.2
CSc1ccc(/C=N/NC(=O)c2cc(O)cc(O)c2)cc1	x	x	-5.3	x	x	x	-2.8	5.8	51.8	0.3
Cc1ccccc1N(CC(=O)NCc1ccc2c(c1)OCO2)C(=O)C1CSC(=O)C1 (stereo not drawn)	-2.7	i	5.5	3.9	1.8	-1.3	-2.3	-0.4	0.4	-1.6
CC(=O)c1ccc(NC(=O)Nc2ccc(NS(=O)(=O)c3ccc(C)cc3)cc2)cc1	x	x	17.1	x	x	x	1.9	-0.8	-1.0	32.0
Cc1nc2cc(C(F)(F)F)ccc2n1C1CCN(CC(=O)N2CCOCC2)CC1	x	x	-11.3	x	x	x	-4.0	4.9	x	-1.7
CC(=C/c1ccccc1)/C=N/NC(=O)CSc1nc(C)cc(C)n1	-5.8	i	-2.9	-22.3	-1.4	-27.0	-2.5	-2.2	-4.8	0.2
Cc1ccccc1N/C(=N/S(=O)(=O)c1cc(F)ccc1F)c1ccccc1	1.4	i	4.0	-5.0	3.0	-6.9	-1.4	2.8	8.8	1.7
NS(=O)(=O)c1ccc(CCNC(=O)c2ccc3nccnc3c2)cc1	-3.1	i	x	x	x	x	x	x	-9.1	-7.2
C[C@H]1CC[C@]2(O[C@H](CCO)C[C@@H](O)[C@@H]2O)O1	-0.9	i	-9.4	11.8	5.0	9.2	2.7	8.1	x	-4.8
Cc1[nH]c(=O)[nH]c(=O)c1S(=O)(=O)Nc1ccc(Oc2ccccc2)cc1	x	x	-1.3	x	x	x	-1.7	3.6	-1.8	-4.8
O=c1[nH]nc(-c2ccccc2)cc1-c1ccccc1	3.5	i	0.0	-1.5	-1.3	-7.6	4.6	1.8	4.0	-2.9
COc1cccc(C(=O)Nc2cccc(OC(C)=O)c2)c1	-1.9	i	4.1	2.0	-5.7	-3.2	4.5	-21.2	2.9	x
OCCOCCn1c2ccccc2c2ccccc21	x	x	x	x	x	x	2.1	2.2	-20.9	-13.2
COc1cc(Cl)c(C)cc1NC(=O)CNC(C)c1ccccc1OC (stereo not drawn)	0.2	i	25.0	-78.0	-26.1	-53.2	4.0	-16.3	-3.1	9.3
COc1cccc(N2CCN(C(=O)c3cccn4c(=O)c5c(C)c(C)sc5nc34)CC2)c1	11.3	i	21.7	6.2	-2.8	1.4	-1.1	-5.5	6.8	-1.5
CCCN(c1ccccc1F)S(=O)(=O)c1cc(-c2cc(C)no2)ccc1OC	-2.4	i	23.2	-25.2	1.3	-24.4	6.1	14.3	54.3	-4.2
CCCOC(=O)c1sc2nc3c(cc2c1N)C(=O)CCC3	x	x	9.0	x	x	x	-4.5	21.1	-1.4	-0.9
CC(C)c1cc(CN2CCOCC2)cc(C(C)C)c1O	-0.2	i	0.9	2.9	-3.6	9.2	1.2	5.3	5.1	-0.3
Cc1ccc2c(c1)C(=O)c1c(C(=O)O)cccc1-2	-1.7	i	9.4	-12.1	0.3	-6.7	-0.9	44.6	23.3	-2.1
O=C1NC(=O)/C(=C/c2ccc(N3CCOCC3)o2)N1	-4.3	i	-24.9	6.0	0.9	8.2	-2.1	-4.8	-8.2	43.5
CCCCN(C(=O)c1ccccc1OCc1ccc(F)cc1)c1c(N)n(CC(C)C)c(=O)[nH]c1=O	1.2	i	-13.2	8.0	-0.7	5.1	1.8	-6.9	-3.7	-5.6
COc1ccc(OCCOC(=O)Nc2ccccc2)cc1	x	x	-13.3	x	x	x	2.1	-5.7	-2.7	1.4
Cc1cc(C)c[n+](-c2nc3ccccc3nc2C(=C=[N-])C#N)c1	-2.6	i	1.7&-9.8	6.8	3.8	16.8	2.6&-2.5	13.1&-1.6	56.7	2.4&8.1
Cn1nc(C(=O)NNc2c(F)c(F)cc(F)c2F)c2ccccc2c1=O	-0.7	i	5.3	-13.8*	-0.5*	-20.8*	1.3	-12.2	x	1.8
Cc1cccc(NC(=O)c2oc3c(c2C)C(=O)CC(C)(C)C3)n1	x	x	-11.5	x	x	x	0.4	23.3	-5.2	-2.8
COc1ccccc1NC(=O)CN(c1ccccc1C)S(C)(=O)=O	1.5	i	0.2	0.0	-2.0	-0.1	6.4	5.3	-4.1	-1.9
CCc1ccc(N(CC)C(=O)c2cn(C)c(=O)c3ccccc23)cc1	-0.1	i	4.9	6.0	-0.7	4.9	7.5	-4.7	-29.3	-0.4
CCN(CC)CCC(O)(c1ccccc1)C1CCCCC1 (stereo not drawn)	2.4	i	0.6	11.0	-0.8	0.7	4.0	-12.9	-9.4	-4.9
COCCN=c1scc(-c2cc(OC)ccc2OC)n1/N=C/c1c[nH]c2ccccc12	16.1	i	45.0	-3.4	32.0	-7.2	-0.1	10.7	13.9	0.0
O=C(CSc1nc2ccccc2c(=O)n1CCC(=O)N1CCN(c2ccccc2)CC1)NCC1CCCO1 (stereo not drawn)	-3.0	i	13.5	-22.6	4.0	-2.7	u	-6.7	9.7	0.5
Cc1ccn2c(c1)nc(=O)c1cc(S(=O)(=O)N3CCC(C)CC3)ccc12	-0.9	i	6.0	8.0	12.2	19.2	-0.5	-0.2	-6.8	0.7
O=C(c1ccc(Oc2ccccc2)cc1)C1CCCN(C(=O)c2cnccn2)C1 (stereo not drawn)	4.2	i	4.6	-18.6	-2.1	-10.6	3.0	u	x	-0.9
COc1ccc(NC2=NC3(CCCCC3)N=C(N)N2)cc1	x	x	-5.6	7.5	-0.1	11.3	u	-2.3	46.3	-2.1
CC(Sc1nc(C2CC2)n(-c2ccccc2)n1)C(=O)c1c(N)n(C)c(=O)n(C)c1=O (stereo not drawn)	1.0	i	-0.9	-0.3	4.6	5.4	-0.2	3.4	3.0	-1.3
Fc1ccccc1CN1CCCN(C(=S)Nc2cccc(Cl)c2)C1	-24.5	i	19.5	-34.3	11.9	-26.9	-4.4	-6.6	0.2	-0.2
CCOc1ccc(Cl)cc1S(=O)(=O)NCc1cccnc1	x	x	-2.3	x	x	x	-0.1	7.1	-2.2	-7.8
CCOC(=O)c1sc(C)c2c1NC(C)(c1cccc3ccccc13)NC2=O (stereo not drawn)	x	x	26.8	x	x	x	0.6	25.5	-1.8	-1.9
O=C(O)/C=C/C(=O)Nc1ccc(S(=O)(=O)Nc2nccs2)cc1	-5.2	i	-13.6	15.6	6.4	6.8	-0.3	x	-7.6	-1.7
Cn1c(=N)n(CC(=O)c2cccs2)c2ccccc21	-2.5	i	-13.7	0.9	9.5	12.8	3.1	-24.2	x	-7.4
COc1cc(NC(=O)NNC(=O)c2cc3occc3n2C)cc(OC)c1OC	-9.3	i	21.9	-4.9	-1.8	-2.7	-1.8	5.8	42.7	-1.5
CNC(=S)N/N=C(\C)c1ccc(N2CCOCC2)cc1	-5.5	i	2.5	4.5	6.8	8.4	u	1.3	x	x
CCCN(CCC)CCCNC(=O)c1cc2c(=O)[nH]c3ccccc3c2s1	1.2	i	34.0	2.1	4.0	-5.2	-3.7	-9.8	-5.5	8.9
CC1(C)C(c2ccco2)=[N+]([O-])C2(CCCCC2=O)N1O (stereo not drawn)	x	x	-0.1	x	x	x	3.2	-2.6	-0.8	-2.2
O=C(NCc1ccccn1)c1cc(-c2ccccc2)nc2ccccc12	-2.7	i	-1.9	8.1	-1.5	8.1	-1.3	-7.0	-8.4	1.0
Cc1nn(-c2ccccc2)c2c1/C(=N/O)CC(C)(C)C2	x	x	0.6	x	x	x	1.3	5.9	-1.9	-12.0
O=C(Nc1ccc(-c2nc3ccccc3s2)cc1)c1cc(-n2cnnc2)ccc1Cl	3.8	i	-6.8	0.6	9.4	6.7	-0.4	64.1	-6.6	24.1
O=C(Cn1nc(C(F)(F)F)c2c1CCCC2)NCc1ccco1	x	x	-3.1	x	x	x	-4.4	-1.3	-10.5	-1.0
CC(=O)c1ccc(NC(=O)CN2CCN(S(=O)(=O)c3ccc4ccccc4c3)CC2)cc1	-0.8	i	x	-4.6	24.5	0.6	x	x	-2.2	-1.0
Cc1cccc(NC(=O)c2sc3nc(N)c(C#N)cc3c2N)c1	x	x	-10.2	x	x	x	0.6	-11.1	19.7	-2.7
O=C(COC(=O)/C=C/c1cccc(Cl)c1)NCc1cccs1	-0.6	i	x	17.0	-2.6	1.6	x	x	-15.2	-3.8
COc1ccc(C(=O)N2CCN(c3ccc(C)cc3)CC2)cc1OC	-0.4	i	-6.7	10.2	1.7	4.7	-2.7	3.8	62.9	-4.1

The list continues:
molecule	MLL AF4-AF9 inh	FGF22 binding	T cruzi inh	Ecoli rRNA inh OD600	Ecoli rRNA inh RFP	Ecoli rRNA inh	RanGTP-Impb inh	Calb FLC	ALR inh	Beta cell apopt
COc1ccc(-n2c(=S)[nH]c3cc(C(=O)NCCCN4CCCC4=O)ccc3c2=O)cc1	x	x	4.1	x	x	x	u	-1.2	-3.9	-1.7
COC(=O)C1(C(=O)OC)Sc2ccccc2C1=O	x	x	-16.4	x	x	x	1.2	-5.3	22.3	-2.1
COc1ccccc1N1CCN(C(=O)C2CCN(S(=O)(=O)c3ccccc3F)CC2)CC1	3.6	i	x	-0.9	-1.5	-3.7	x	x	0.2	-0.9
Cc1ccc(CCNC(=O)CC2Oc3ccc(C)cc3NC2=O)cc1 (stereo not drawn)	-0.9	i	-2.6	1.3	-1.0	-2.7	5.3	8.1	17.7	0.0
